GLA inh pH 4.5: alpha-galactosidase A (human) inhibition, pH 4.5. P06280. purified enzyme, 4-MU-alpha-Gal fluorescence, pH 4.5. activity change, negative = inhibition, % at 105 µM. 230,000 tested, under 10 active; inconclusive = small, poorly fitted or top-dose-only inhibition, or a rising curve; inactive = flat fitted curve, though single readings scatter; no compound was filed as active;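 also: 0% = full activity with enzyme and -100% = basal without enzyme; dose as in the result columns while the protocol names 77 µM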
Rango dissoc inh: prevents RanGTP from dissociating the Rango-importin beta complex; actives 0.071% (n = 340,000); O95149+P62826; Potency, µM (doses to about 46.1 µM), without a hit: at the highest dose activity change, negative = inhibition; Biochemical FRET Rango-importin beta, RanGTP-induced dissociation; AID 540253; active means falling FRET ratio curve, often poorly fitted, with flat reads before Ran was added; inconclusive means other falling curves, or compound fluorescence or quenching; inactive means flat or rising ratio curve;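 also: potency is read from the fitted curve at half-maximal effect; % of control where 0% means no effect; nearly all actives have a fitted effect of over 45% in size; -100% = wells without RanGTP and RCC1; the record marks most hits as doubtful in a second field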
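Rango (0.1 uM)–importin beta (0.25 uM) complex; RanGTP-RCC1 trigger; 45 min RT; CFP/YFP FRET read.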
miR-21 reporter: raises the signal of a miR-21 reporter; Potency, µM (highest dose often 38.3 µM), for inactives: at the top dose reporter change, positive = more light; HeLa miR-21 FLuc reporter, luciferase, 48 h; 340,000 tested, under 10 active; active = well fitted rising curve with a large enough effect; inconclusive = small, poorly fitted or top-dose-only effect; inactive = no such curve, though single readings can be large or run the other way;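 also: % of control where 0% means no effect; miR-21 action dims this reporter so a rising signal means less miR-21 action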
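Compounds were titrated across several concentrations (up to approximately 40 uM) and incubated 48 hours with HeLa miR-21-FLuc reporter cells (miR-21 target sequence downstream of FLuc, endogenous miR-21). Readout was firefly luciferase luminescence after lytic detection reagent.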
Rango-impB inh: inhibitors of Rango-importin beta complex formation; Potency, µM (titrated, usually from 92.2 µM), for the others: at the highest dose inhibition of complex formation; actives 0.031% (n = 340,000); Rango CFP/YFP FRET sensor + importin beta, 45 min; AID 540263; Q14974; active = rising FRET ratio curve, often small or poorly fitted; inconclusive = mostly compound fluorescence or quenching in the first reads; inactive = flat curves in all reads;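 also: potency is read from the fitted curve at half-maximal effect; 0% = DMSO wells and 100% = buffer wells lacking importin beta; nearly all actives have a fitted effect of over 15% in size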
Target sequence (Q14974 whole entry, looked up): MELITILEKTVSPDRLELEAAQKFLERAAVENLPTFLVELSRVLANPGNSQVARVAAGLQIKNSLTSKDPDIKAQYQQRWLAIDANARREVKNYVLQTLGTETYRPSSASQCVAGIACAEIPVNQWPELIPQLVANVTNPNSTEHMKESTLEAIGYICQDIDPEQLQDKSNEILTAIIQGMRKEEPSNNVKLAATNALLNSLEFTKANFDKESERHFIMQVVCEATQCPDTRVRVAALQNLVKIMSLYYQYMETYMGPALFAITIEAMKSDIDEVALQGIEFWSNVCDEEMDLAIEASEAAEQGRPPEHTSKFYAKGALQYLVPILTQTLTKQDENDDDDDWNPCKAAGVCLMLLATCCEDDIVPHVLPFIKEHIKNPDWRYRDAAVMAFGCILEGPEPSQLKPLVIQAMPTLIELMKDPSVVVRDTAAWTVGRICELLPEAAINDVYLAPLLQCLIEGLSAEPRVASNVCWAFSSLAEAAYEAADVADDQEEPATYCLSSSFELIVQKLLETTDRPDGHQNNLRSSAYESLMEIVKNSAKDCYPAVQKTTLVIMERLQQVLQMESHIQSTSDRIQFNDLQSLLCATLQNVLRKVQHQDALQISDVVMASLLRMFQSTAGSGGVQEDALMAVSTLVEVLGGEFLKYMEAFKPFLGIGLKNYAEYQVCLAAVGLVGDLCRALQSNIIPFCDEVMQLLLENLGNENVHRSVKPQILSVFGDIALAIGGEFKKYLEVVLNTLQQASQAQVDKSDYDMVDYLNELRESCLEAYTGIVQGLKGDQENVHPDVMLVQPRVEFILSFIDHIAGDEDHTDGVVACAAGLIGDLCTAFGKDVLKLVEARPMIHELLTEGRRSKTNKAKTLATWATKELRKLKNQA
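Inhibition scored from the CFP 486 nm/YFP 530 nm FRET ratio 45 min after adding 0.125 microM importin beta to 50 nM Rango biosensor preincubated 5 min with compound (room temperature, PBS with DTT, Tween-20, BSA). No-importin wells as positive control.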
* hit, by the source's call; ? = inconclusive; . = not tested or not shown; & = joins results of further samples.

nr	Structure	GLA inh pH 4.5	Rango dissoc inh	miR-21 reporter	Rango-impB inh
1	CCN(CC)CCCNCC(=O)Nc1cc(C)on1	2	-10%	-2%	0.9%
2	COC(CNC(=O)C1CCN(S(=O)(=O)c2cccc3nsnc23)CC1)OC	.	23%	1%	-0.3%
3	Cc1ccc(/C=C2\SC(=S)N(CC(=O)Nc3cccnc3)C2=O)cc1	0	1%	1%	4.0%
4	O=C1c2ccccc2C(=O)N1CCCP(=O)(O)CCc1ccccc1	-3	8%	-6%	3.4%
5	O=C(CCc1ccccc1)NCc1ccccn1	-5	-5%	0%	1.3%
6	CS/C(N)=N/C(=S)Nc1cccc(Cl)c1	5	1%	-44%	2.5%
7	N#C/C(=C/c1cn[nH]c1-c1ccc(Br)cc1)C(=O)O	-2	0%	-3%	-7.4%
8	COc1ccccc1CC(=O)Nc1ccc(NC(=O)c2cccs2)cc1	.	1%	4%	0.1%
9	O=[N+]([O-])c1ccc2nc(-c3ccccc3)[nH]c2c1	-4	6%	-47%	-3.9%
10	O=C(c1ccccc1)N1CCC(c2nc3c(nnn3Cc3ccccc3Cl)c(=O)[nH]2)CC1	11	6%	-3%	3.5%
11	O=[N+]([O-])c1ccc(O)c(-c2cc(C(F)(F)F)nc(-c3ccccc3)n2)c1	.	-14%	?	2.5%
12	CCOC(=O)c1ccc(S(=O)(=O)Nc2cc(C(=O)O)ccc2Cl)cc1	-1	1%	3%	0.5%
13	COc1ccccc1-n1c(CNC(=O)c2ccco2)nnc1SCC(=O)Nc1cc(C)ccc1C	-1	-23%	0%	0.3%
14	S=C(c1cn(CCOc2cccc3ccccc23)c2ccccc12)N1CCCC1	-13	?	2%	?
15	C[C@@H](C(=O)Nc1ccc2ccccc2c1)[C@@H]1C[C@@]1(C)[C@@H](NC(=O)c1ccccc1)c1ccccc1	3&-5	-18%	-23%	5.9%
16	CCOC(=O)c1cnc(-n2nc(C)cc2C)nc1Nc1cccc(C(=O)O)c1	6	23%	-19%	-0.4%
17	CCCCC(=O)Nc1c(-c2cccc(OC)c2)c(=O)c2ccccc2n1C	.	-10%	-1%	-0.3%
18	COc1ccc(-c2cc(C(=O)N3CCN(Cc4ccc5c(c4)OCO5)CC3)on2)cc1OC	.	-9%	-1%	0.4%
19	COc1ccc(S(=O)(=O)N2CCOCC2)cc1NC(=O)CCOc1ccc(C(C)(C)C)cc1	.	10%	.	0.0%
20	Cn1c(O)c(N=NC(=O)CNC(=O)c2ccccc2)c2ccccc21	.	-2%	-1%	-0.2%

Entries above that have a nitro group on carbon (2):
nr	Structure	GLA inh pH 4.5	Rango dissoc inh	miR-21 reporter	Rango-impB inh
9	O=[N+]([O-])c1ccc2nc(-c3ccccc3)[nH]c2c1	-4	6%	-47%	-3.9%
11	O=[N+]([O-])c1ccc(O)c(-c2cc(C(F)(F)F)nc(-c3ccccc3)n2)c1	.	-14%	?	2.5%

(listing goes on)
nr	Structure	GLA inh pH 4.5	Rango dissoc inh	miR-21 reporter	Rango-impB inh
21	O=C1CCCC2=C1C(c1ccncc1)Nc1ccccc1N2 (stereo unspecified)	11	0%	-3%	0.3%
22	Cc1cccc(C)c1NC(=O)CN(C)C(=O)CSCc1c(C)noc1C	.	-10%	.	10.0%
23	CCOc1ccccc1NS(=O)(=O)c1cccc2nsnc12	-5	2%	-3%	3.2%
24	CCc1ccc(C(=O)NNC(=O)CCN2CCN(Cc3ccccc3)CC2)cc1	8	1%	2%	0.3%
25	O=C(Nc1ccccc1)N1CCC(C(=O)N2CCN(S(=O)(=O)c3cccc(F)c3)CC2)CC1	5	-3%	-4%	4.6%
26	O=C(Nc1ccnc(-c2cccnc2)n1)c1ccccc1Cl	2	12%	-9%	-2.8%
27	Cc1ccc(Cn2nnc3c(=O)n(Cc4cccc(C)c4)cnc32)cc1	-8	19%	-1%	?
28	Cc1ccc(C)c(NC(NC(=O)c2cccnc2)C(Cl)(Cl)Cl)c1 (stereo unspecified)	6	5%	3%	-1.2%
29	COc1ccc(C(=O)NCCCOc2cccnc2)cc1OC1CCN(C(C)=O)CC1	.	1%	14%	4.2%
30	O=C(Nc1cc(Cl)ccc1F)c1ccc(-n2cncn2)c([N+](=O)[O-])c1	.	1%	.	0.2%
31	CC(=O)c1ccc(OCC(=O)NCC(c2ccco2)N2CCCCC2)cc1 (stereo unspecified)	5	-5%	3%	-3.3%
32	CCOC(=O)Oc1ccc(C(=O)OCCCN(C)C)cc1OC	8	2%	-4%	?
33	O=C(CCc1ccccc1)N[C@@H]1c2ccccc2CC[C@@H]1OCc1ccccc1	.	22%	.	6.3%
34	COCC(C)NC(=O)c1cc2c(ccc3ccccc32)oc1=O (stereo unspecified)	.	?	-26%	?
35	CSCC(=O)N1CCCC(CO)(CCCc2ccccc2)C1 (stereo unspecified)	.	2%	4%	0.0%
36	COc1cccc(/C=N\NC(C)=O)c1OC/C=C/c1ccccc1	.	16%	0%	2.5%
37	CC1CCCC(C)N1C(=O)COC(=O)c1ccc(F)c(S(=O)(=O)N2CCOCC2)c1 (stereo unspecified)	.	-4%	-3%	-0.4%
38	O=C(CSc1nnc(-c2ccc(Cl)cc2)n1-c1ccccc1)N/N=C/c1ccccc1C(=O)O	-8	6%	4%	0.8%
39	Cc1c(Cc2c(Cl)cccc2Cl)c(=O)ccn1C(C)c1ccccc1 (stereo unspecified)	-4	-21%	3%	-4.4%
40	CC(=O)OCc1c(F)c(F)c(-n2nc(C)cc2C)c(F)c1F	3	5%	-4%	4.6%

Structures listed so far with two or more sulfur atoms (4):
nr	Structure	GLA inh pH 4.5	Rango dissoc inh	miR-21 reporter	Rango-impB inh
2	COC(CNC(=O)C1CCN(S(=O)(=O)c2cccc3nsnc23)CC1)OC	.	23%	1%	-0.3%
3	Cc1ccc(/C=C2\SC(=S)N(CC(=O)Nc3cccnc3)C2=O)cc1	0	1%	1%	4.0%
6	CS/C(N)=N/C(=S)Nc1cccc(Cl)c1	5	1%	-44%	2.5%
23	CCOc1ccccc1NS(=O)(=O)c1cccc2nsnc12	-5	2%	-3%	3.2%

Further structures follow:
nr	Structure	GLA inh pH 4.5	Rango dissoc inh	miR-21 reporter	Rango-impB inh
41	Cc1ccc(NC(=O)CN(C)C(=O)Cc2ccc3c(c2)CCC3)cc1	.	17%	.	-0.4%
42	Cc1cc(C)c(S(=O)(=O)N2CCN(c3ccccc3)CC2)c(C)c1	.	-1%	0%	?
43	Cc1ccc(S(=O)(=O)Nc2ccccc2C(=O)N2CCCCC2C)c(C)c1NS(C)(=O)=O (stereo unspecified)	.	44%	3%	-1.1%
44	Cc1ccc(/C=N\NC(=O)CC(=O)NCCc2ccccc2)cc1	.	2%	-13%	-1.5%
45	Cc1ccc(NC(=O)C2CC(=O)N(C(C)C)C2)cc1C (stereo unspecified)	.	0%	-10%	?
46	C[C@@H](NS(=O)(=O)c1ccc(Br)cc1F)[C@@H](O)c1ccccc1	.	-2%	.	3.6%
47	COc1cccc(CNC(=O)Cn2ccc3cc(S(=O)(=O)N4CCCC4)ccc32)c1	.	?	4%&-6%	1.9%
48	O=C(c1cccnc1Cl)N1CCOCC1	-1	-1%	-1%	-0.8%
49	COc1ccc(/C=N/NC(=O)c2ccc3c(c2)OCCO3)c(OC)c1	.	7%	-13%	3.1%
50	COc1ccc(C(CC(=O)Nc2cc(C)ccn2)N2Cc3ccccc3C2=O)cc1 (stereo unspecified)	.	4%	4%	4.1%
51	CCn1nnnc1SCC(=O)Nc1nc2ccccc2s1	-12	-8%	-26%	-2.6%
52	O=C(Nc1ccc(Cl)cc1)c1cc2c(cc1O)[nH]c1ccccc12	12	-10%	?	-1.8%
53	O=C(N/N=C/c1sc(=O)n(-c2ccccc2)c1Cl)c1ccncc1	-20	-19%	-2%	?
54	CCCN(Cc1cc2ccc(C)cc2[nH]c1=O)C(=O)c1cccnc1	1	-11%	1%	-4.8%
55	COc1ccc(S(=O)(=O)N2CCN(C)CC2)cc1Br	3	27%	-4%	7.1%
56	COc1ccc(OC)c2[nH]c(=O)c(CCNC(=O)C(=O)c3c[nH]c4ccccc34)cc12	12	-17%	1%	0.2%
57	Nc1nnc(SCC(=O)N2CCCCC2)s1	.	-27%	-3%	0.0%
58	CCOC(=O)N1c2ccccc2C=CC1OCC (stereo unspecified)	-6	.	-2%	.
59	O=c1c(Cl)cc(Cl)nn1-c1ccccc1	5	30%	?	?
60	COc1cccc(NC(=O)c2ccccc2NC(=O)c2ccncc2)c1	.	-12%	.	-0.9%

Individual results from the entries so far:
In Rango-impB inh, COc1cccc(CNC(=O)Cn2ccc3cc(S(=O)(=O)N4CCCC4)ccc32)c1 is entered as 1.9%
In Rango dissoc inh, Cc1cc(C)c(S(=O)(=O)N2CCN(c3ccccc3)CC2)c(C)c1 is entered as -1%

Next results follow.
nr	Structure	GLA inh pH 4.5	Rango dissoc inh	miR-21 reporter	Rango-impB inh
61	O=C1NN(c2cccc(Br)c2)C(=O)/C1=C\c1ccc(N2CCOCC2)cc1	.	9%	0%	-5.4%
62	O=S(=O)(CC(CN1CCCCC1)N1CCCCC1)c1ccccc1 (stereo unspecified)	-1	-1%	?	-0.6%
63	O=S1(=O)NC(=NCC(c2ccco2)N2CCCCC2)c2ccccc21 (stereo unspecified)	5	-7%	0%	-1.4%
64	O=C(NCc1ccccc1)Nc1cccn(Cc2ccccc2F)c1=O	-1	33%	-34%	0.6%
65	CC(NC(=O)COc1ccccc1)C(=O)OCC(=O)c1cc2ccccc2o1 (stereo unspecified)	6	0%	-9%	-2.2%
66	O=c1[nH]c(=O)n(C2C[C@H](O)[C@@H](CO)O2)cc1C(F)(F)F (stereo partly specified)	.	10%	.	-4.1%
67	CCOC(=O)N1CCN(c2c(N3CCN(c4ccc(F)cc4)CC3)c(=O)c2=O)CC1	-5	37%	-2%	-2.1%
68	Cc1nc(N2CCN(C)CC2)c2c(C)c(C(=O)Nc3ccc(C)c(F)c3)sc2n1	-10	-8%	-10%	-0.5%
69	Cc1cc(C)n2nc(SCc3nnc(-c4ccccc4Br)o3)nc2n1	13	-2%	-19%	-6.0%
70	COc1ccc(N(CC(=O)NCCSc2ccccc2)S(=O)(=O)c2ccccc2)cc1OC	.	?	2%	-0.1%
71	CCc1ccc(NC(=O)/C(C#N)=C/c2ccncc2)cc1	.	-4%	0%	-0.6%
72	Cc1nc2oc3c(NCc4ccccc4)ncnc3c2c2c1COC(C)(C)C2	-2	-8%	-7%	-3.3%
73	CSc1ccc(/C=C/C(=O)NC(=O)c2ccccc2O)cc1	?	2%	-25%	-0.8%
74	Cc1ccc2c(c1)C(c1ccc(F)cc1)N(C(=O)c1cc3ccccc3oc1=O)CC(=O)N2 (stereo unspecified)	-3	2%	-12%	-3.9%
75	COc1cc(NC(=S)N2CCN(c3ccccn3)CC2)c(OC)cc1Cl	8	-2%	-14%	-5.3%
76	CC(C(=O)NCCc1ccc(F)cc1)N1CCN(Cc2ccccc2)CC1 (stereo unspecified)	7	-5%	-7%	-0.9%
77	Cc1ccc(-c2nc(NC(=O)CSc3nnnn3-c3ccccc3)ns2)cc1	-1	-3%	-11%	-2.8%
78	O=C(COC(=O)c1ccc(O)cc1)Nc1ccc(OC(F)F)cc1	6	-5%	0%	0.4%
79	C/C(=C\C(=O)OCC(=O)NCc1ccccc1)C(=O)OCC(=O)NCc1ccccc1	1	-5%	2%	1.5%
80	Cc1ccc2ncnc(NCCC(=O)O)c2c1	-8	14%	-4%	?
81	O=S(=O)(Oc1ccccc1/C=N/n1cnnc1)c1ccccc1	4	10%	-17%	2.4%
82	COC(=O)c1cc2c(ccn2-c2ccc(F)cc2)n1Cc1ccc(OC)cc1	-5	-1%	-42%	0.0%
83	O=[N+]([O-])c1ccc(Oc2ccc(C(F)(F)F)cn2)cc1	5	5%	-9%	-4.6%
84	O=C(CN1C(=O)NC2(CCOc3ccccc32)C1=O)c1ccc[nH]1 (stereo unspecified)	.	2%	.	-1.5%
85	Cc1ccc(NC(=O)C(=O)NCCc2c[nH]c3ccccc23)cc1C	7	-18%	-9%	-0.8%
86	COc1ccc(OCc2nnc(SCC(N)=O)n2N)cc1	3	-10%	1%	2.3%
87	O=C1c2cccc3cccc(c23)C(=O)C1(O)O	.	-5%	.	2.3%

Bioassay records from PubChem BioAssay.

This is a subset, so the mix of outcomes need not match the whole.
